D2 PAM – potentiates the human D2 dopamine receptor allosterically; P14416; DiscoveRx D2 beta-arrestin cells, luminescence, 90 min; 100% = 57 uM dopamine signal; potentiation, % (concentration not given with the values); hit rate 0.23% among 360,000; active = potentiation of 50% or more; inconclusive = 30% to 50%; inactive = 30% or less;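 also: compound concentration not given in the record; tested on top of an EC20 dose of dopamine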
Target sequence (P14416 whole entry, looked up): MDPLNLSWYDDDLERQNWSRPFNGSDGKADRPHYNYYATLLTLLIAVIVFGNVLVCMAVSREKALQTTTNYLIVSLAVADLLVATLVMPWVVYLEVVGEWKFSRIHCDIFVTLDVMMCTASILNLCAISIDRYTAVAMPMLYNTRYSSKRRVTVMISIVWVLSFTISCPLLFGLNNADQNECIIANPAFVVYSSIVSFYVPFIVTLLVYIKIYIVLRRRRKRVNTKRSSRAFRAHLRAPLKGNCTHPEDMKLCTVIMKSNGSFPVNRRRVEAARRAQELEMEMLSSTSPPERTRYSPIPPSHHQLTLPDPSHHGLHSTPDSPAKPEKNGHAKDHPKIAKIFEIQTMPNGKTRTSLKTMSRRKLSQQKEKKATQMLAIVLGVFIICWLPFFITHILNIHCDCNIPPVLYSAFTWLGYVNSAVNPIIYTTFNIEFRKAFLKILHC
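PathHunter beta-arrestin assay in DiscoveRx D2 cells. Compounds were added with an EC20 of dopamine (50 nM final) for 90 min at 37 deg C. Luminescence was read 1 h after detection reagent, with 57 uM dopamine as the EC100 control.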
TRPV1 PAM – human TRPV1 potentiation | TRPV1-expressing cells, Fluo-8 calcium influx, capsaicin EC20 potentiation; host cell line not named in the record; control for the full effect not named in the record | potentiation, % at 8.33 µM | hit rate 0.02% among 320,000 | Q8NER1; active means potentiation above 80%; inconclusive means 30% to 80%; inactive means below 30%; also: 0% is about no effect
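TRPV1-expressing cells were cultured overnight at 35.5C and loaded with Fluo-8 calcium dye for 40 to 90 min at room temperature. After a 10 s baseline, compound was added and calcium influx was read kinetically for 3 min (ex 480/em 520 nm).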
Six1-Eya2 inh – inhibitors of human Six1/Eya2 interaction | Q15475+O00167 | AlphaScreen GST-Six1/His-Eya2 binding, biochemical; hits give low values; control for the full effect not named in the record | activity change, % (concentration not given with the values) | hit rate 0.56% among 360,000 | AID 651725; in the data active = activity change below about -65%; inconclusive = about -30% to -65%; inactive = above about -30%; also: % is scaled to controls: 0 for no effect and ±100 for the full control effect
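GST-Six1 + His-Eya2 (5X stock: 250/500 nM); Tris pH 8.0, 300 mM NaCl, 0.05% BSA, 0.02% Tween 20; GSH donor/Ni acceptor beads; 1 h 37 °C dark; AlphaScreen readout.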
TRPML1 blocker – inhibitors of human TRPML1 channel | Q9GZU1 | TRPML1-inducible cells, Ca2+ dye fluorescence, FDSS; hits give low values; inhibition of EC80 agonist-evoked calcium signal | hit rate 0.02% among 390,000 | activity change, negative = inhibition, % (no concentration beside the values); in the data active means activity change below about -50%; inconclusive means about -30% to -50%; inactive means above about -30%;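 also: stimulus is agonist 54-4 at its EC80 concentration; % is scaled to controls: 0 for no effect and ±100 for the full control effect; compound concentration not given in the record; the text of the record puts the active cut at -80%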
Target sequence (Q9GZU1 whole entry, looked up): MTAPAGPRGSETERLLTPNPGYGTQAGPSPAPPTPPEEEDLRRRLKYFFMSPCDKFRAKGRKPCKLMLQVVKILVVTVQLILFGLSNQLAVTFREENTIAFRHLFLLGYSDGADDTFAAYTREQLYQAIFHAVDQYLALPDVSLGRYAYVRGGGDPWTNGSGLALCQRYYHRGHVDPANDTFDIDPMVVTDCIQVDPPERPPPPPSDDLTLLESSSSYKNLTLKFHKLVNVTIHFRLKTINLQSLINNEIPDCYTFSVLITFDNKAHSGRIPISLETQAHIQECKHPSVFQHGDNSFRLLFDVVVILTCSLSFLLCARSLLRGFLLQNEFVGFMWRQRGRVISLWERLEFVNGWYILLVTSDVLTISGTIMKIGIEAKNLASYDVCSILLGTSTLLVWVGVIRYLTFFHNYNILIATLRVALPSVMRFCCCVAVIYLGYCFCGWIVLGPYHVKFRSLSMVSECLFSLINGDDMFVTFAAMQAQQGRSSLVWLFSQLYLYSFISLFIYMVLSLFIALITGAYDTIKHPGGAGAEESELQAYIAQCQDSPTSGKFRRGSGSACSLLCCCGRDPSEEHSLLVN
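Tet-induced TRPML1-DL cells loaded with Ca8 no-wash calcium dye were read kinetically on FDSS. Compound addition was followed by EC80 agonist 54-4 (4 uM final); inhibition was read over 110 s.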
TRPML1 agonist – human mucolipin-1 channel agonism; TRPML1-expressing cells, Ca2+ dye fluorescence, FDSS; host cell line not named in the record; reference of the full effect not given here; activation, % (no concentration beside the values); hit rate 0.12% among 410,000; in the data active = activation above about 50%; inconclusive = about 30% to 50%; inactive = below about 30%; also: 0% is about no effect; the text of the record puts the active cut at 80%
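Tetracycline-induced TRPML1-DL cells are seeded and incubated overnight before loading with a no-wash Ca2+ dye and quencher. Agonist activity is taken from the 110 s fluorescence read following compound pin-transfer on an FDSS, before EC80 54-4 challenge.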
CtBP-E1A inh – blocks the CtBP interaction with E1A. AlphaScreen GST-E1A/His-CtBP binding, 1536-well; hits give low values; control for the full effect not named in the record. hit rate 0.49% among 340,000. activity change, % (test concentration not listed); in the data active means activity change below about -65%; inconclusive means about -30% to -65%; inactive means above about -30%; also: % is scaled to controls: 0 for no effect and ±100 for the full control effect; compound concentration not given in the record
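In 5 uL wells, 23 nL compound meets equimolar GST-E1A and His-CtBP (5X stock 125 nM each) for 2 h, 37 °C. Beads (5X, 50 ug/mL) then 1 h, 37 °C, dark.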
Numbers without * were called inactive.

Results for CCN1CCc2c(sc(NC(=O)CSc3ccccc3)c2-c2nc3ccccc3s2)C1 ?
TRPV1 PAM: -1.9; TRPML1 blocker: -14.4; TRPML1 agonist: 70.2*

How did COc1ccc(CCN=C(N)NS(=O)(=O)c2ccccc2)cc1 do in these assays?
D2 PAM: 0.0; TRPV1 PAM: -7.3; Six1-Eya2 inh: 5.0; TRPML1 blocker: -15.4; TRPML1 agonist: -0.1; CtBP-E1A inh: -0.6

How did COc1ccc(N2CCN(C(=O)CCCN3C(=O)c4cccc5cccc(c45)C3=O)CC2)cc1 do in these assays?
D2 PAM: 0.6; TRPV1 PAM: 9.0; Six1-Eya2 inh: inconclusive; TRPML1 blocker: 15.5; TRPML1 agonist: -0.6; CtBP-E1A inh: inconclusive

How did CNC(=O)C(=O)NCC1OCCCN1S(=O)(=O)c1cccs1 (stereo not drawn) do in these assays?
D2 PAM: -14.0; TRPV1 PAM: 2.2; Six1-Eya2 inh: 4.2; TRPML1 blocker: 23.2; TRPML1 agonist: 0.5; CtBP-E1A inh: -2.6

How did O=C(Cn1ncc2c(=O)oc3ccccc3c21)N1CCN(C(=O)c2ccco2)CC1 do in these assays?
D2 PAM: -2.1; TRPV1 PAM: -3.2; Six1-Eya2 inh: 6.7; TRPML1 blocker: 8.2; TRPML1 agonist: -0.8; CtBP-E1A inh: -1.1

What do the screens show for `Cc1nc(N/N=C/c2ccccn2)sc1C`?
D2 PAM: 21.2; TRPV1 PAM: -16.3; Six1-Eya2 inh: inconclusive; TRPML1 blocker: 10.2; TRPML1 agonist: 0.4; CtBP-E1A inh: inconclusive

Results for COCCNC(=O)C1(C)CCCN(Cc2cc(C)ccc2C)C1 (stereo not drawn) ?
D2 PAM: -6.0; Six1-Eya2 inh: 2.1; TRPML1 agonist: -0.1; CtBP-E1A inh: 9.6

Results for Cc1nc(SCC(=O)NC(C)(C)C)c2c(-c3cccs3)csc2n1 ?
D2 PAM: -0.7; TRPV1 PAM: -12.0; Six1-Eya2 inh: -13.5; TRPML1 blocker: 73.3; TRPML1 agonist: 2.5; CtBP-E1A inh: -4.6

How did O=C(O)COc1ccccc1/C=N/NC(=O)CSc1nc2ccccc2c(=O)n1-c1ccccc1 do in these assays?
D2 PAM: -3.4; TRPV1 PAM: 7.1; Six1-Eya2 inh: -4.3; TRPML1 blocker: -18.7; TRPML1 agonist: -0.4; CtBP-E1A inh: 0.0

What do the screens show for `CNC(=S)N/N=C/c1c2ccccc2c(Cl)c2ccccc12`?
D2 PAM: -16.7; TRPV1 PAM: 2.4; Six1-Eya2 inh: -9.7; TRPML1 blocker: 8.0; TRPML1 agonist: 3.1; CtBP-E1A inh: -7.7

Results for CC[n+]1c(C)n(C)c2cc(S(=O)(=O)N(C)C)ccc21 ?
D2 PAM: 3.0; TRPV1 PAM: -10.7; Six1-Eya2 inh: 5.8; TRPML1 blocker: -2.7; TRPML1 agonist: 2.3; CtBP-E1A inh: 8.7

How did COc1cc(/C=C2\COC/C(=C\c3ccc(O)c(OC)c3)C2=O)ccc1O do in these assays?
D2 PAM: -12.2; TRPV1 PAM: -13.5; Six1-Eya2 inh: -6.2; TRPML1 blocker: -15.1; TRPML1 agonist: 1.2; CtBP-E1A inh: -9.5

Results for CCO[C@@H]1OC(C(N)=O)=C[C@H](c2ccc(Br)cc2)[C@H]1CCCO ?
D2 PAM: -3.8; TRPV1 PAM: -16.2; Six1-Eya2 inh: -1.7; TRPML1 blocker: 4.0; TRPML1 agonist: -0.2; CtBP-E1A inh: 6.3

What do the screens show for `Cn1c(SCC(=O)N(C2CCCCC2)C2CCCCC2)nnc1-c1cccs1`?
D2 PAM: 1.7; TRPV1 PAM: -7.4; Six1-Eya2 inh: -1.3; TRPML1 blocker: 0.1; TRPML1 agonist: 1.4; CtBP-E1A inh: 5.9

How did Cc1nn(-c2ccccc2)c(-n2cccc2)c1C(=O)O do in these assays?
D2 PAM: 1.6; TRPV1 PAM: 1.9; Six1-Eya2 inh: -7.4; TRPML1 blocker: 10.1; TRPML1 agonist: 0.2; CtBP-E1A inh: 19.7

How did CCOc1ccc(NC(=O)CCN2C(=S)NC(C)(C)CC2C)cc1 (stereo not drawn) do in these assays?
D2 PAM: -2.1; TRPV1 PAM: 5.8; Six1-Eya2 inh: -11.9; TRPML1 blocker: 11.7; TRPML1 agonist: -0.1; CtBP-E1A inh: -6.5

Results for S=c1[nH]nc(-c2cccc(Cl)c2)n1Cc1ccccc1 ?
D2 PAM: -15.3; TRPV1 PAM: 25.2; Six1-Eya2 inh: -11.3; TRPML1 blocker: -3.0; TRPML1 agonist: -0.7; CtBP-E1A inh: -6.5

What do the screens show for `Cc1cc(NC(=O)c2ccco2)ccc1NC(=O)Cc1cccs1`?
D2 PAM: -1.4; TRPV1 PAM: 0.2; Six1-Eya2 inh: 4.2; TRPML1 blocker: 39.4; TRPML1 agonist: -0.5; CtBP-E1A inh: -0.6

How did O=C(Nc1ccc(-c2nc3ccccc3[nH]2)cc1)c1ccc2c(c1)OCO2 do in these assays?
D2 PAM: 7.0; TRPV1 PAM: 13.0; Six1-Eya2 inh: -5.2; TRPML1 blocker: 2.1; TRPML1 agonist: 0.4; CtBP-E1A inh: 5.2

Results for O=C(CSc1nnc(-c2ccc(Cl)cc2Cl)n1C1CCCCC1)N1CCCC1 ?
D2 PAM: -5.9; TRPV1 PAM: -22.3; Six1-Eya2 inh: 5.0; TRPML1 blocker: -22.2; TRPML1 agonist: -0.5; CtBP-E1A inh: 2.7

What do the screens show for `C/C(=N/NC(=O)c1ccc(NC(=O)c2ccc(F)cc2)cc1)c1ccccc1`?
D2 PAM: -15.8; TRPV1 PAM: -15.3; Six1-Eya2 inh: 0.4; TRPML1 blocker: -8.1; TRPML1 agonist: -0.4; CtBP-E1A inh: -0.6

What do the screens show for `CCOC(=O)c1c(NC(=O)CSc2nnnn2-c2ccc3c(c2)OCO3)sc(C)c1C`?
D2 PAM: 3.4; TRPV1 PAM: 13.2; Six1-Eya2 inh: 5.0; TRPML1 blocker: 11.2; TRPML1 agonist: 0.3; CtBP-E1A inh: 7.1

Results for CCN(CC)CCC(=O)N1c2ccccc2CCc2ccc(NC(=O)OC(C)C)cc21 ?
D2 PAM: -3.1; TRPV1 PAM: -7.2; Six1-Eya2 inh: -3.0; TRPML1 blocker: 14.0; TRPML1 agonist: 0.2; CtBP-E1A inh: 5.3

What do the screens show for `CCN1C(=O)[C@H]2[C@@H](c3ccc(C)cc3)N3C(=O)N(c4cccc(C)c4)C(=O)[C@@]3(Cc3ccccc3)[C@H]2C1=O`?
D2 PAM: -5.7; TRPV1 PAM: -7.4; Six1-Eya2 inh: -4.8; TRPML1 blocker: 24.3; TRPML1 agonist: 1.4; CtBP-E1A inh: 0.4

What do the screens show for `OC[C@@H]1[C@@H](c2ccccc2)C(c2ccccc2)=NN1c1ccccc1`?
D2 PAM: 2.0; Six1-Eya2 inh: 52.4; TRPML1 blocker: 20.5; TRPML1 agonist: -1.3; CtBP-E1A inh: 50.9

What do the screens show for `COc1ccc(CCNC(=O)C2CCCN(S(=O)(=O)N3CCCCCC3)C2)cc1OC` (stereo not drawn)?
D2 PAM: -5.8; TRPV1 PAM: -1.0; Six1-Eya2 inh: 2.6; TRPML1 blocker: -8.1; TRPML1 agonist: 0.8; CtBP-E1A inh: 8.9

Results for COc1ccccc1NC(=O)c1ccc(NC(=O)CSc2nnnn2C)cc1 ?
D2 PAM: -5.1; TRPV1 PAM: -9.2; Six1-Eya2 inh: -5.4; TRPML1 blocker: -0.7; TRPML1 agonist: 5.2; CtBP-E1A inh: -2.5

Results for O=C(NC12CC3CC(CC(C3)C1)C2)c1ccc(Br)o1 ?
D2 PAM: -1.3; TRPV1 PAM: 0.8; Six1-Eya2 inh: 0.7; TRPML1 blocker: -8.6; TRPML1 agonist: 2.1; CtBP-E1A inh: 2.0

How did COc1ccc(NCc2nnc(SCC(=O)Nc3cc(C(F)(F)F)ccc3Cl)o2)cc1 do in these assays?
D2 PAM: -2.8; TRPV1 PAM: 6.1; Six1-Eya2 inh: -9.5; TRPML1 blocker: 6.1; TRPML1 agonist: 2.9; CtBP-E1A inh: -3.0

What do the screens show for `CCOC(=O)C1CCN(C(=O)c2cc3c(OC)c(OC)c(OC)cc3[nH]2)CC1`?
D2 PAM: -7.3; TRPV1 PAM: -5.1; Six1-Eya2 inh: 0.5; TRPML1 blocker: -6.9; TRPML1 agonist: 0.6; CtBP-E1A inh: 5.6

What do the screens show for `CCCC(O)(CCC)C(=O)NN(C(=O)CCl)c1ccccc1`?
D2 PAM: -1.0; TRPV1 PAM: -13.7; Six1-Eya2 inh: -2.3; TRPML1 blocker: 10.3; TRPML1 agonist: 5.9; CtBP-E1A inh: 0.6

How did O=C(COC(=O)C(Cc1ccccc1)NC(=O)c1ccc(Cl)cc1)c1ccc(Cl)cc1 (stereo not drawn) do in these assays?
D2 PAM: -7.8; TRPV1 PAM: 2.0; Six1-Eya2 inh: 8.4; TRPML1 blocker: 13.5; TRPML1 agonist: 2.6; CtBP-E1A inh: 6.2

What do the screens show for `CN(C)c1ccc(C2SCCN2C(=O)c2ccc([N+](=O)[O-])cc2)cc1` (stereo not drawn)?
D2 PAM: -2.8; TRPV1 PAM: -3.6; Six1-Eya2 inh: -21.4; TRPML1 blocker: -8.7; TRPML1 agonist: 1.0; CtBP-E1A inh: -27.8

Results for C#CCN(N(C)c1ncc(C(F)(F)F)cc1Cl)S(=O)(=O)c1ccc2ccccc2c1 ?
D2 PAM: -1.8; TRPV1 PAM: -4.5; Six1-Eya2 inh: 6.4; TRPML1 blocker: 57.7; TRPML1 agonist: 2.1; CtBP-E1A inh: 2.5

How did CCCCc1ccc(S(=O)(=O)NC2CCS(=O)(=O)C2)cc1 (stereo not drawn) do in these assays?
D2 PAM: -2.1; TRPV1 PAM: -5.6; Six1-Eya2 inh: 1.0; TRPML1 blocker: 13.4; TRPML1 agonist: 0.6

How did CCSc1nnc(Cn2c(=O)sc3ccccc32)n1-c1ccccc1C do in these assays?
D2 PAM: -1.7; TRPV1 PAM: 3.3; Six1-Eya2 inh: -0.2; TRPML1 blocker: 2.0; TRPML1 agonist: 0.3; CtBP-E1A inh: 5.3

Results for CCOc1ccc(C(=O)CN2C(=O)NC3(CCCc4ccccc43)C2=O)cc1 (stereo not drawn) ?
D2 PAM: -12.7; Six1-Eya2 inh: 2.8; TRPML1 blocker: 14.5; TRPML1 agonist: -0.5; CtBP-E1A inh: -8.2

Results for Cc1ccsc1/C=C/C1=Cc2c(sc(NC(=O)CSc3n[nH]c(N)n3)c2C#N)C(C)(C)C1 ?
D2 PAM: -10.3; TRPV1 PAM: 20.4; Six1-Eya2 inh: -10.5; TRPML1 blocker: 6.6; TRPML1 agonist: 9.1; CtBP-E1A inh: -4.8

How did COc1ccc(-c2nc3ccc(Cl)cn3c2Cc2ccsc2)cc1OC do in these assays?
D2 PAM: -5.0; Six1-Eya2 inh: -3.6; TRPML1 agonist: -0.2; CtBP-E1A inh: 1.7

Reprinted from the listing, 2 compounds:
What do the screens show for `CCOC(=O)c1c(NC(=O)CSc2nnnn2-c2ccc3c(c2)OCO3)sc(C)c1C`?
D2 PAM: 3.4; TRPV1 PAM: 13.2; Six1-Eya2 inh: 5.0; TRPML1 blocker: 11.2; TRPML1 agonist: 0.3; CtBP-E1A inh: 7.1

Results for CCN(CC)CCC(=O)N1c2ccccc2CCc2ccc(NC(=O)OC(C)C)cc21 ?
D2 PAM: -3.1; TRPV1 PAM: -7.2; Six1-Eya2 inh: -3.0; TRPML1 blocker: 14.0; TRPML1 agonist: 0.2; CtBP-E1A inh: 5.3
